Assay outcomes from PubChem BioAssay.
miR-21 reporter: raises the signal of a miR-21 reporter | 340,000 tested, under 10 active | HeLa miR-21 FLuc reporter, luciferase, 48 h | Potency, µM (titrated, usually from 38.3 µM), for the others: at the top dose reporter change, positive = more light; active = well fitted rising curve with a large enough effect; inconclusive = small, poorly fitted or top-dose-only effect; inactive = no such curve, though single readings can be large or run the other way;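 also: % of control where 0% means no effect; miR-21 action dims this reporter so a rising signal means less miR-21 action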
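HeLa cells stably expressing CMV-driven firefly luciferase with a downstream miR-21 binding sequence, endogenously expressing miR-21, were treated with titrations (up to about 40uM final) for 48 hours at 37 degree Celsius. Luciferase luminescence was read after lysis.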
GLA inh pH 4.5: blocks human alpha-galactosidase A at pH 4.5. P06280. purified enzyme, 4-MU-alpha-Gal fluorescence, pH 4.5. activity change, negative = inhibition, % at 105 µM. 230,000 tested, under 10 active; inconclusive = small, poorly fitted or top-dose-only inhibition, or a rising curve; inactive = flat fitted curve, though single readings scatter; no compound was filed as active;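 also: 0% = full activity with enzyme and -100% = basal without enzyme; dose as in the result columns while the protocol names 77 µM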
Target sequence (P06280 whole entry, looked up): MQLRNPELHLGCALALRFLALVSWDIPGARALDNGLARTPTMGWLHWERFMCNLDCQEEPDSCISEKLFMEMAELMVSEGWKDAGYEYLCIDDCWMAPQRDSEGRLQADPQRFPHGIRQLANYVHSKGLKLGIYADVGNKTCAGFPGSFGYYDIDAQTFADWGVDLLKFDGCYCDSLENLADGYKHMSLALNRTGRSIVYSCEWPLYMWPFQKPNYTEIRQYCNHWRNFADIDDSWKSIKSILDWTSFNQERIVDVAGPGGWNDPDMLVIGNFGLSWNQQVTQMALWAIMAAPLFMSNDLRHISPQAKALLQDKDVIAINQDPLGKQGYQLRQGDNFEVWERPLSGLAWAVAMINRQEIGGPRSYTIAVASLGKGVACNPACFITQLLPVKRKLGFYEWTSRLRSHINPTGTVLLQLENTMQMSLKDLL
Rango dissoc inh: prevents RanGTP from dissociating the Rango-importin beta complex; Biochemical FRET Rango-importin beta, RanGTP-induced dissociation; Potency, µM (highest dose often 46.1 µM), inactives show at the top dose activity change, negative = inhibition; 340,000 compounds, 0.071% hits; AID 540253; active means falling FRET ratio curve, often poorly fitted, with flat reads before Ran was added; inconclusive means other falling curves, or compound fluorescence or quenching; inactive means flat or rising ratio curve;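 also: potency is read from the fitted curve at half-maximal effect; % of control where 0% means no effect; nearly all actives have a fitted effect of over 45% in size; -100% = wells without RanGTP and RCC1; the record marks most hits as doubtful in a second field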
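FRET read at 45 min, room temperature: inhibitors block the CFP/YFP signal rise when RanGTP (0.6 uM Ran, 2 mM GTP, 0.2 uM RCC1) frees Rango (0.1 uM) from importin beta (0.25 uM). Pre-read after 5 min compound exposure flags interference.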
Rango-impB inh: prevents formation of the Rango-importin beta complex; Q14974; Rango CFP/YFP FRET sensor + importin beta, 45 min; Potency, µM (doses to about 92.2 µM), for the others: at the top dose inhibition of complex formation; 340,000 compounds, 0.031% hits; active = rising FRET ratio curve, often small or poorly fitted; inconclusive = mostly compound fluorescence or quenching in the first reads; inactive = flat curves in all reads;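 also: potency is read from the fitted curve at half-maximal effect; 0% = DMSO wells and 100% = buffer wells lacking importin beta; nearly all actives have a fitted effect of over 15% in size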
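FRET biosensor Rango (snurportin 1 IBB between N-terminal EYFP and C-terminal Cerulean), 50 nM in PBS/1 mM DTT/0.02% Tween-20/0.1% BSA, preincubated 5 min RT with compound; 0.125 microM importin beta added, 45 min RT, CFP/YFP FRET ratio read.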
An asterisk follows results filed as active; ? = inconclusive; nt = no result given; [ ] = another dose, or the depositor's remark. A portion of the library. The share of hits here may be higher or lower than overall.

SMILES	miR-21 reporter	GLA inh pH 4.5	Rango dissoc inh	Rango-impB inh
COc1ccccc1N1CCN(C(=O)c2cc(N3C(=O)C4C5CCC(C5)C4C3=O)ccc2Cl)CC1 (stereo unspecified)	-3.2%	10.9	-1.6%	-0.6%
CCn1c(-c2ccc(C)cc2)nn(CC(=O)NCCc2ccccc2)c1=S	?	-16.5	9.6%	-2.8%
COc1ccc(CN2CCN(C(=O)c3ccc(CNS(=O)(=O)c4ccc(C)cc4)cc3)CC2)c(OC)c1OC	14.2%	nt	-7.7%	0.7%
COC(=O)c1c(NC(=S)Nc2ccc(C(=O)N3CCOCC3)cc2)sc2c1CCC2	-3.8%	0.2	0.4%	1.2%
CC(=O)c1ccc(OCCN2CCOCC2)cc1	-8.9%	-2.0	-2.8%	-4.3%
COc1cccc(C2CC(c3cccs3)=NN2C(=O)CSc2nc3c(cnn3-c3ccc(F)cc3)c(=O)[nH]2)c1OC (stereo unspecified)	-2.1%	-9.5	0.6%	-1.4%
COc1ccc(/C=C2\SC(=S)N(CC(=O)Nc3nnc(C)s3)C2=O)cc1	2.0%	4.2	-16.2%	?
Cc1cc(C(=O)NC2CC(C)(C)Cc3c2cnn3-c2ccccc2)n[nH]1 (stereo unspecified)	11.8%	nt	10.8%	5.8%
COc1cc(/C(O)=C(\C#N)c2nc3ccccc3[nH]2)cc(OC)c1OC	-2.2%	nt	?	?
COc1ccc(-n2c(-c3ccc(F)cc3)cnc2SCC(=O)NCc2ccco2)cc1	-12.3%	-14.3	1.7%	0.7%
CCOc1ccccc1N(CC(=O)NC1CCCCC1)C(=O)CCCC(=O)Nc1ccccn1	-1.3%	7.9	0.4%	0.3%
C/C(=N\NS(=O)(=O)c1ccccc1)c1ccc2c(c1)OCO2	-10.2%	0.5	-1.7%	-1.0%
Cc1nc2ccc(-c3ccccc3)cc2o1	-19.9%	5.8	-6.2%	0.8%
CCCCN(C(=O)c1cccc(C)c1)c1c(N)n(CCC)c(=O)[nH]c1=O	0.8%	nt	-4.8%	-3.0%
CNS(=O)(=O)c1cn(CC(=O)NCc2ccc(N(C)C)cc2)cc1S(=O)(=O)NC	-1.3%	nt	-8.4%	4.7%
CCOC(=O)c1cnc2ccc(C)cc2c1Nc1ccc(N2CCOCC2)cc1	27.6%	-1.5	-0.7%	-4.6%
COc1ccccc1NC(=O)CN1C(=O)CSC(C)C1=O (stereo unspecified)	0.1%	-6.6	-9.8%	-3.0%
COc1cc(CN(CCN(C)C)Cc2ccccc2)ccc1OCc1ccccc1	-0.2%	nt	3.4%	-0.5%
COC(=O)[C@@]12CCCCN1[C@H](c1ccc(-c3ccccc3)cc1)[C@@H]1C(=O)N(C)C(=O)[C@@H]12	nt	nt	35.8%	0.3%
COC(=O)c1ccc(S(=O)(=O)NNC(=O)COc2ccc(C)cc2)cc1	-9.7%	-6.6	4.4%	4.0%
Cc1ccc(C(=O)NCCNC(=O)c2ccco2)cn1	-3.1%	nt	-12.5%	4.0%
Brc1ccc(-c2csc(N3CCc4ccccc4C3)n2)cc1	-2.8%	-7.1	-1.3%	0.3%
O=C(c1ccccc1)c1coc(-c2ccccc2)c1	nt	nt	-6.5%	-2.1%
COc1ccc(/C=C2\N=C(SC)N(c3ccccc3OC)C2=O)cc1	21.1%	-13.6[21.1 µM]	-5.6%	?
Cc1nc2ccccc2nc1N1CCCC1	-25.5%	-3.0	-1.9%	-0.3%
New compounds follow:
SMILES	miR-21 reporter	GLA inh pH 4.5	Rango dissoc inh	Rango-impB inh
O=C(COc1ccccc1)N1CCN(C(=O)Cc2ccccc2)CC1	0.0%	8.4	-5.1%	?
CC(=O)Nc1nc(CCN2C(=O)c3ccccc3C2=O)cs1	-5.0%	6.2	-4.6%	5.2%
COc1ccc(-c2cc3cc(OC)c(OC)cc3c(C)n2)cc1	-66.6%	-6.0	5.0%	?
Cc1ccc(/C=N/NC(=O)NC23CC4CC(CC(C4)C2)C3)o1	-35.1%	-6.4	15.9%	-0.1%
Cc1c(C)n2c(SCC(=O)Nc3cccc4ccccc34)nnc2[nH]c1=O	nt	nt	4.1%	0.1%
Cc1nn(-c2ccccn2)c2nc(-c3cccs3)cc(C(=O)N3CCOCC3)c12	-19.8%	6.4	-1.4%	0.3%
O=C(Nc1ccccc1-c1ccccc1)c1cc(C(F)(F)F)cc(C(F)(F)F)c1	-4.0%	8.6	6.9%	0.3%
Cc1cc2[nH]c(=O)c(=O)[nH]c2cc1S(=O)(=O)NCc1ccccc1	0.5%	nt	-23.8%	-1.1%
Cc1ccccc1C(=O)Nc1ccccn1	-16.8%	0.4	24.6%	-0.2%
CNC(=O)c1ccc(Nc2nnc(C)c3ccccc23)cc1	-20.5%	-1.9	0.5%	0.5%
COc1ccc(C(NC(=O)c2cc(OC)ccc2OC)c2ccccc2)cc1 (stereo unspecified)	17.1%	nt	-2.4%	-1.0%
O=C(NCCc1ccccn1)c1c(-c2ccccc2)sc2ccccc12	nt	nt	-0.3%	0.5%
CSc1cccc(NC(=O)Nc2nc3c(C)cccc3s2)c1	-2.2%	-6.3	-5.5%	4.1%
Cc1ccc(N2CCN(CC3CC=CCC3)CC2)cc1 (stereo unspecified)	-6.4%	-6.3	7.6%	2.2%
COc1ccc(NC(=O)c2cc(-c3ccco3)nc3ccccc23)cc1	nt	nt	-7.4%	0.0%
COc1ccc(CNc2cc(NCCCO)c([N+](=O)[O-])c3nonc23)cc1	5.3%	5.6	-12.5%	1.0%
COc1ccc(NC(=S)NCc2ccc(S(N)(=O)=O)cc2)c(OC)c1	-7.7%	-1.6	-9.7%	3.3%
COc1cc(/C=C2/C(=O)NN(c3ccc(Cl)cc3)C2=O)cc(Br)c1O	-1.2%	nt	2.2%	-2.9%
CN(C)CCN(C(=O)c1ccc2c(c1)OCCO2)c1nc2cc3c(cc2s1)OCO3	-12.7%	nt	6.8%	1.3%
COc1ccc(OCCC(=O)c2ccc(OC)cc2)cc1	3.5%	-1.4	-3.0%	-9.5%
CCn1c(SCC(=O)N2CCOCC2)nc2sc3c(c2c1=O)CCCC3	-1.6%	1.1	-4.2%	3.2%
CC1Sc2ccc(C(=O)NCc3ccccc3Cl)cc2NC1=O (stereo unspecified)	nt	nt	-15.5%	-2.1%
S=C(Nc1ccccc1)Nc1nc2ccccc2n1CCOc1ccccc1	-9.7%	-1.2	0.7%	3.7%
COc1ccc(NC(=O)c2ccco2)cn1	-25.6%	nt	-10.2%	-1.6%
O=C(CCCN1C(=O)c2ccccc2C1=O)Nc1ccc(S(=O)(=O)N2CCCCC2)cc1	-1.6%	-7.5	-11.7%	0.2%
Remaining list, next part.
SMILES	miR-21 reporter	GLA inh pH 4.5	Rango dissoc inh	Rango-impB inh
c1ccc(CCSc2nccn2-c2ccccc2)cc1	-62.7%	2.9	-11.1%	-0.2%
Cc1nc(-c2cc(C#N)c(=O)[nH]c2C)cs1	-4.9%	6.5	-6.0%	10.8%
CCn1cnc2cc(NCc3cccs3)ccc21	-56.7%	-6.1	0.0%	6.1%
COc1cccc(OC)c1C(=O)Nc1cccc(-c2ccc(N3CCOCC3)nn2)c1	nt	nt	18.4%	0.2%
CCOC(=O)N1CCN(C(=O)CSCc2ccccc2Cl)CC1	-50.1%	1.3	0.2%	-1.5%
CCOC(=O)N1CCN(S(=O)(=O)c2ccc(C(=O)NNc3nc4c(C)cc(C)cc4s3)cc2)CC1	15.7%	10.5	-24.8%	?
COc1ccc(NS(=O)(=O)c2cc(NC(=O)c3cnccn3)ccc2N2CCCC2)cc1	21.1%	4.2	8.7%	-0.1%
Cc1ccccc1C(=O)Nc1ccc(C(=O)N/N=C/c2ccc(O)c(Br)c2)cc1	3.5%	8.8	-18.7%	?
CCN(CC)c1ncnc2ccc(Br)cc12	7.3%	5.7	0.2%	-0.9%
CC(C)(C)c1cc(CN2CCN(CCC#N)CC2)cc(C(C)(C)C)c1O	-2.0%	-3.8	5.4%	-0.7%
O=C(CN1C(=O)CSC1=O)Nc1ccccc1F	-0.1%	4.9	-7.6%	-0.1%
O=C(C1CC(=O)N(c2ccc3c(c2)OCCO3)C1)N1CCN(Cc2ccccc2F)CC1 (stereo unspecified)	nt	nt	?	1.5%
COc1ccccc1/C=C1\SC(=S)N(CCC(=O)NCCc2ccc(O)cc2)C1=O	-1.0%	nt	5.0%	-5.3%
Cn1cnc(S(=O)(=O)N2CCN(c3cccc(C(F)(F)F)c3)CC2)c1	-8.3%	nt	-0.2%	5.4%
CCSC(=Nc1ccccc1)C1=C(O)COC1=O	-5.5%	5.3	-8.2%	2.8%
COc1ccc(C(=O)CN2C(=O)c3ccccc3C2=O)c(OC)c1C	-13.5%	-9.8	-7.9%	-0.2%
Cc1ccc(Cl)cc1NC(=O)CN1CCOCC1	nt	nt	2.7%	0.1%
C=C(C)Cn1c(-c2cccc([N+](=O)[O-])c2)n[nH]c1=S	4.9%	3.5	0.5%	7.8%
COc1cc(C(=O)NNC(=O)CSc2nnc3ccccn23)cc(OC)c1OC	nt	nt	-12.7%	0.8%
COc1ccc(Cl)c(NC(=O)NCCN2CCN(c3ccccc3)CC2)c1	1.9%	-8.0	7.4%	1.3%
O=C(Nc1cccnc1)c1ccc(Cl)c([N+](=O)[O-])c1	12.4%	-0.5	2.6%	3.4%
COc1ccc(C(C)(C)C)cc1NC(=O)c1ccc2c(c1)SC1=NS(=O)(=O)CCN12	-4.5%	-9.5	13.7%	0.7%
CCOC(=O)N1CCN(C(=O)CSCc2nc(-c3ccccc3C)oc2C)CC1	2.4%	-2.1	-27.8%	-0.2%
COc1ccc(/C(C)=N/NC(=O)c2sccc2-n2cccc2)cc1	-28.2%	-9.8	?	0.2%
CNc1nc(N)c([N+](=O)[O-])c(NCCO)n1	-0.3%	-7.3	3.9%	?

One compound at a time (already shown):
Record of CCSC(=Nc1ccccc1)C1=C(O)COC1=O : miR-21 reporter: -5.5%; GLA inh pH 4.5: 5.3; Rango dissoc inh: -8.2%; Rango-impB inh: 2.8%
Record of O=C(Nc1cccnc1)c1ccc(Cl)c([N+](=O)[O-])c1 : miR-21 reporter: 12.4%; GLA inh pH 4.5: -0.5; Rango dissoc inh: 2.6%; Rango-impB inh: 3.4%
Record of COc1cccc(OC)c1C(=O)Nc1cccc(-c2ccc(N3CCOCC3)nn2)c1 : miR-21 reporter: nt; GLA inh pH 4.5: nt; Rango dissoc inh: 18.4%; Rango-impB inh: 0.2%

Next section:
SMILES	miR-21 reporter	GLA inh pH 4.5	Rango dissoc inh	Rango-impB inh
CCOC(=O)c1ccc(NC(=O)COc2ccccc2CNCCc2ccccc2)cc1	16.0%	-7.7	22.9%	0.5%
COc1ccc(-c2ccc(-c3nnn(CC(=O)N4CCOCC4)n3)cc2)cc1	-41.2%	2.0	5.1%	1.6%
CC1CCCN(C(C(=O)Nc2ccc3c(c2)OCCO3)c2ccccc2)C1 (stereo unspecified)	-14.0%	-25.6	9.4%	-0.5%
COc1ccccc1N1CCN(C(=O)C(Sc2ccccc2)c2ccccc2)CC1 (stereo unspecified)	29.4%	-4.6	-7.9%	-2.6%
O=C(COc1ccccc1-c1ccccc1)NNC(=O)NC1CCCCC1	6.3%	-10.4	1.5%	-1.1%
O=[N+]([O-])c1cc2c(cc1CN1CCN(c3ccc(F)cc3)CC1)OCO2	2.3%	nt	-2.6%	-0.7%
Cc1ccc2[nH]c(=O)c(-c3nc4c(C)cccn4c3NCc3ccco3)cc2c1	-14.3%	-2.3	20.2%	-0.3%
C/C(=N/Nc1ccccc1[N+](=O)[O-])c1ccc(C)c([N+](=O)[O-])c1	-7.9%	nt	0.9%	-1.4%
O=C(CCC1CCCN(C2C3CC4CC(C3)CC2C4)C1)NCc1ccc(F)c(F)c1 (stereo unspecified)	-0.6%	-13.7	-16.9%	2.7%
CN1C(=O)NC(c2ccccc2[N+](=O)[O-])C2=C1CC(C)(C)CC2=O (stereo unspecified)	-1.7%	nt	-22.8%	1.7%
CCN(CC)CCN(C(=O)Cn1nnc(-c2ccc(OC)c(OC)c2)n1)C(C(=O)NC1CCCC1)c1ccc(F)cc1 (stereo unspecified)	-2.1%	3.0	1.7%	-3.6%
CCS(=O)(=O)NC(C)C(c1cccs1)N1CCN(c2ccc(OC)cc2)CC1 (stereo unspecified)	16.3%	-2.7	-12.2%	-2.0%
